Source: PubChem (several laboratories)
Sa ugtP lethal – compounds lethal to S. aureus RN4220 ugtP deletion mutant. growth inhibition, % (concentration not given with the values). OD600 growth, 16 h; some inactives read as strong as hits. actives 0.54% (n = 330,000);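 active = z-score under -3 and OD600 up to 0.15 on both plates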;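 note: plate controls were untreated wells for no effect and antibiotic for full effect; wells of about 80 µL received 100 nL stock; the first replicate is given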
Bead autofluor – flagged as autofluorescent in microsphere protease counterscreen. compound autofluorescence counterscreen, microsphere flow cytometry; hits give high values. fluorescence intensity (no concentration beside the values). actives 3.1% (n = 360,000). AID 624483;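 active = at least 3 SD above the mean of all compounds, about 16000 in these data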;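 note: 100 nL of 1 mM stock went into each well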
PrP 5UTR inh – inhibition of PrP 5' UTR reporter expression. cell-based PrP 5' UTR mRNA reporter, plate reader. inhibition, % (no concentration beside the values). actives 0.35% (n = 340,000);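 active = every replicate at 50% or more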;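 note: 0 = median of the neutral control wells; tested in H4 reporter cells; numbers are from one replicate; inactives centre near -14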
BJeLR viability – kills HRASV12-expressing BJeLR cells; BJeLR (HRASV12) viability, CellTiter-Glo ATP luminescence, 48 h; reference of the scale not given here; inhibition, % (no concentration beside the values); actives 0.17% (n = 300,000);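 active = replicate mean above 50%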;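 note: 50 nL library stock added to about 25 µL; numbers are from one replicate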
Mtb hypoxia inh – reduces hypoxia-regulated biosensor signal in M. tuberculosis; M. tuberculosis hypoxia-regulated fluorescent reporter, fluorescence; fluorescence inhibition, % (no concentration beside the values); actives 0.1% (n = 300,000);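 active = 35 to 45% if threefold the growth effect, above 45% if 1.5-fold the growth effect; inactive = the rest, general growth blockers included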;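 note: wells of about 50 µL received 100 nL stock; 0% = vehicle wells and 100% = reference inhibitor wells; whole bacteria with a GFP reporter of the hypoxia response; strong numbers were not always called active; many hits fall short of the cut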
RN4220 kill – S. aureus RN4220 growth inhibition; OD600, 16 h; inhibition, % (no concentration beside the values); actives 0.33% (n = 330,000);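 active = z-score of -3 or lower and OD600 up to 0.18 on both plates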;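 note: plate controls were untreated cells for no effect and reference antibiotic for full effect; stock transfer was 100 nL into about 80 µL; one replicate is shown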
Mtb hypoxia inh growth – second read-out of Mtb hypoxia inh, no call of its own (marks repeat the call); growth inhibition, %; measured here: M. tuberculosis growth (absorbance);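 0% = vehicle and 100% = reference antibiotic; read after six days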
* hit, by the source's call; nt = no result given. Rows are unselected; about 4.1% have a hit in one of these screens.

SMILES | Sa ugtP lethal | Bead autofluor | PrP 5UTR inh | BJeLR viability | Mtb hypoxia inh | Mtb hypoxia inh growth | RN4220 kill
CCOC(=O)C1CCN(C(=O)CCc2ccccc2)CC1 | 0.0 | 4332 | -3.8 | -4.9 | 14.9 | 19.0 | -1.6
CCC(C(=O)NCCCN1CCCCCC1)n1nc(C)c2sc3ccccc3c2c1=O (configuration not stated) | 1.1 | 5305 | -25.5 | 5.6 | -6.7 | 0.6 | 0.3
O=C1CSC(c2cccnc2)N1Cc1cccnc1 (configuration not stated) | 10.6 | 6624 | -17.7 | 7.2 | 6.2 | 3.1 | 5.4
Cc1cccc(N(C(=O)c2sc(C)nc2C)C(C(=O)NCc2ccco2)c2ccccc2)c1 (configuration not stated) | 1.2 | 8753 | -28.9 | -4.6 | 0.1 | -6.7 | 8.3
O=c1[nH]c(Cc2ccccn2)nc2scc(-c3ccc(Cl)cc3)c12 | -2.1 | 2561 | -9.0 | -9.6 | 5.0 | -3.7 | -5.4
O=C(NN=C/C=C/c1ccccc1)c1ccccn1 | 1.3 | nt | nt | nt | 9.1 | 7.5 | 3.8
CCOc1ccc(S(=O)(=O)NCc2cccnc2)cc1C(C)C | -6.9 | 4555 | -4.5 | -5.3 | -2.8 | 11.8 | 2.2
CCN(CC(=O)Nc1ccc(Br)cc1F)CC(=O)NC1CCS(=O)(=O)C1 (configuration not stated) | 6.4 | 3582 | -16.2 | nt | 7.3 | 7.6 | 8.5
CC(=O)Nc1ccc(NC(=O)Cc2sc(-c3cccnc3)nc2-c2ccc(C)cc2)cc1 | 9.6 | 3819 | -26.1 | -5.2 | 10.3 | 8.1 | 3.8
CCOC(=O)c1sc2ccc(S(=O)(=O)N3CCCCC3)cc2c1N | -2.3 | 6733 | nt | 0.7 | 0.4 | 6.0 | -4.1
O=C(CC1SCCNC1=O)Nc1ccccc1Cl (configuration not stated) | 2.2 | 4415 | -29.4 | -4.2 | 5.2 | -8.5 | 2.3
Cc1nc(SCc2nc3ccc(F)cc3[nH]2)c2oc3ccccc3c2n1 | 18.1 | 3645 | -26.2 | nt | -0.3 | 7.2 | 7.0
Cc1cccc(OCC(=O)NN=Cc2cn(C)c3ccccc23)c1 | -4.7 | nt | nt | nt | 7.0 | 13.9 | 0.7
Cc1nc(CS(=O)c2ccccc2)cc(N2CCOCC2)n1 (configuration not stated) | -0.2 | 2339 | -17.8 | 4.5 | nt | nt | 2.5
CCOC(=O)c1ccc(NC(=O)N2CCN(c3ccccn3)CC2)cc1 | 3.0 | 6609 | -6.1 | -0.2 | 9.0 | 9.2 | 4.5
Cc1ccc(CNC(=O)C(=O)Nc2nccs2)cc1 | -1.6 | 2554 | -9.8 | -2.9 | 9.7 | 3.6 | -0.7
O=C(CCc1nc(-c2ccccc2)no1)NCc1cccnc1 | -3.6 | 23102* | -7.0 | -12.0 | 2.9 | 6.4 | -2.3
S=C(Nc1ccc(Br)cc1)N1CCN(C2CCCCC2)CC1 | 18.3 | 8237 | -9.8 | -0.4 | 8.4 | 1.7 | 4.9
COC(=O)N/N=C/c1cn(CCOc2cccc(OC)c2)c2ccccc12 | nt | 4255 | -3.3 | 0.8 | nt | nt | nt
N#CC(c1ccc(Cl)nn1)c1c(F)cccc1Cl (configuration not stated) | -2.1 | 3844 | -2.0 | 3.6 | 7.5 | 13.3 | 6.1
c1ccc(Cc2nnc(Sc3ccccc3)c3ccccc23)cc1 | 46.0 | 11485 | -70.3 | -3.0 | 5.5 | 2.3 | 0.1
O=C(NCc1ccc(Cl)cc1Cl)Nc1ccccc1 | -7.5 | 4128 | -82.3 | -2.4 | -10.6 | -3.1 | 2.4
CCC(=O)N1CCN(c2ccccc2NC(=O)c2cccc(C)c2)CC1 | 0.4 | 9548 | -26.2 | 2.0 | -12.5 | 0.8 | 2.7
CCCOc1ccc(C(=O)NCC(c2ccco2)N(C)C)cc1OC (configuration not stated) | 11.2 | 2795 | -6.1 | -6.2 | 3.9 | 4.0 | 4.3
CCCOc1ccc(N2C(=O)CC(NCc3cccs3)C2=O)cc1 (configuration not stated) | -2.4 | 4763 | -16.6 | -4.5 | nt | nt | 1.4

Overlap with the part before: 2 entries, followed by the next part.
SMILES | Sa ugtP lethal | Bead autofluor | PrP 5UTR inh | BJeLR viability | Mtb hypoxia inh | Mtb hypoxia inh growth | RN4220 kill
CCCOc1ccc(C(=O)NCC(c2ccco2)N(C)C)cc1OC (configuration not stated) | 11.2 | 2795 | -6.1 | -6.2 | 3.9 | 4.0 | 4.3
CCCOc1ccc(N2C(=O)CC(NCc3cccs3)C2=O)cc1 (configuration not stated) | -2.4 | 4763 | -16.6 | -4.5 | nt | nt | 1.4
CC(=O)c1cccc(NC(=O)N2CCCc3ccccc32)c1 | 4.2 | 10873 | -31.7 | 4.1 | 0.2 | -26.6 | 3.3
N=C1S/C(=C\c2ccc(O)cc2)C(=O)N1c1ccc(F)cc1 | -14.2 | 3637 | -24.3 | 0.0 | 17.1 | -1.3 | 13.3
CCOC(=O)C1CCN(C(=O)CN(c2ccc(Cl)c(C(F)(F)F)c2)S(C)(=O)=O)CC1 | -1.2 | 3304 | 5.4 | -5.3 | -0.1 | 2.1 | 1.5
O=Cc1c(SCCO)nc2ccccn2c1=O | 4.8 | 3538 | -4.6 | -1.8 | 4.9 | 5.2 | 1.6
CC(=O)Nc1ccc(CN2CCCC(CO)(Cc3cccc(Cl)c3)C2)cc1 (configuration not stated) | 8.2 | 4996 | -11.8 | 3.8 | 4.0 | 4.0 | 1.9
COC(=O)c1ccccc1Oc1c(F)c(F)nc(N2CCOCC2)c1F | 25.0 | 5930 | -3.3 | 7.0 | 11.7 | 10.7 | 3.7
COc1ccc2c(Cl)c(C(=O)N/N=C/c3cccnc3)sc2c1 | nt | 3673 | -25.6 | 1.9 | nt | nt | nt
Cc1c(N(C)S(=O)(=O)c2cc(C(=O)N3CCCC3)ccc2Cl)c(=O)n(-c2ccccc2)n1C | 2.7 | 5373 | -8.9 | 1.0 | 5.6 | 12.8 | 3.1
O=C(NCC(c1cccnc1)N1CCN(c2ccc(F)cc2)CC1)c1cccc(Cl)c1 (configuration not stated) | 16.1 | 3516 | -9.1 | 5.1 | 2.0 | 2.3 | 6.0
CCOC(=O)N1CCN(C(=O)COc2cc(C)c(Cl)c(C)c2)CC1 | 1.4 | 4386 | -4.2 | 0.1 | 11.5 | 6.3 | 7.2
COCCNC(=O)Cn1c(=O)oc2cc(S(=O)(=O)N3CC(C)CC(C)C3)ccc21 (configuration not stated) | 4.2 | 4424 | 3.8 | 3.3 | 4.9 | 1.0 | 2.8
COc1cc(C2NC(=O)NC(c3ccccc3)=C2C(C)=O)cc(Cl)c1OCC(=O)O (configuration not stated) | 6.4 | 2378 | -16.8 | 7.8 | 9.3 | 0.5 | 2.6
COc1cc(N2CCCC2)c(OC)cc1/C=C(/C#N)c1ccc(F)cc1 | -16.3 | 7730 | -16.8 | -3.9 | 4.7 | 4.7 | -19.3
CN(C)c1ccc(/C=C/c2nc3ccccc3s2)cc1 | -5.0 | 3461 | 31.2 | 21.1 | -62.4 | 6.4 | 1.8
COCCn1c(=O)[nH]c2cc(C(=O)NCc3ccccc3)ccc2c1=O | 6.1 | 3716 | -28.7 | 2.1 | 21.9 | 15.8 | -0.2
N/C(=N\OC(=O)CCCc1ccccc1)c1cccc([N+](=O)[O-])c1 | nt | 2152 | 4.7 | -13.0 | nt | nt | nt
O/N=C1\CCCc2oc3c(c21)CCCC3 | nt | 19892* | -7.2 | -3.0 | nt | nt | nt
CCOC(=O)N1CCN(Cc2c(O)ccc3ccccc23)CC1 | 11.2 | 4525 | -18.9 | -3.5 | 11.5 | 0.6 | 3.1
C/C(=N\NC(=O)CSCc1cccc(Br)c1)c1ccc([N+](=O)[O-])cc1 | nt | 9975 | -12.4 | 4.2 | nt | nt | nt
CCN(CC)C(=O)CSc1nc(C)cc(-c2cccs2)c1C#N | -0.5 | 4273 | -1.3 | 2.5 | 8.5 | -0.6 | 4.1
Fc1ccc(Nc2ncnc3sccc23)cc1 | 1.3 | 5528 | 4.5 | -1.9 | -3.9 | -0.8 | 7.2
COc1ccc(CNC(=O)C(C#N)c2nc3ccccc3nc2N2CCN(C)CC2)cc1 (configuration not stated) | -13.0 | 3038 | -74.9 | 1.2 | 6.8 | 11.6 | 2.6
Cc1ccccc1C1=NCC(=O)N(CC(=O)NCc2ccco2)c2sc3c(c21)CCCC3 | -7.0 | 9455 | -9.3 | nt | 3.9 | -3.4 | 6.5
CCC(C)[C@H]1CNC(=S)N1CCC12CC3CC(CC(C3)C1)C2 (some centres not stated) | nt | 4579 | -28.8 | 0.4 | nt | nt | nt
Cc1cc(NC(=O)CSCc2ccc([N+](=O)[O-])cc2)no1 | 0.2 | 4951 | -21.8 | 5.4 | -2.7 | 6.3 | 8.7
The list continues.
SMILES | Sa ugtP lethal | Bead autofluor | PrP 5UTR inh | BJeLR viability | Mtb hypoxia inh | Mtb hypoxia inh growth | RN4220 kill
CC(=NOC(=O)c1c(-c2ccccc2Cl)noc1C)c1ccncc1 | 1.8 | nt | nt | nt | 8.6 | 1.1 | 5.5
Cc1cc(C)cc(Oc2ccc(C(F)(F)F)cc2C#N)c1 | 35.8 | 4688 | -16.4 | -9.4 | nt | nt | -6.3
CN(C)c1ccc(C(CC(=O)O)C(=O)O)cc1 (configuration not stated) | 2.1 | 1951 | -0.7 | 1.3 | 10.5 | 10.6 | 4.1
CCc1cccc(C)c1NC(=O)C(c1ccccc1)N1CCC1=O (configuration not stated) | -3.0 | 3831 | -13.1 | -6.8 | -5.9 | 9.7 | -3.1
CCC(=O)Nc1nc2ccccc2n1CCN1CCOCC1 | 3.0 | 2881 | -31.7 | -4.8 | -2.2 | 0.4 | 7.7
Cc1nc(N2CCCCC2C)c2c(C)c(C(=O)Nc3ccccc3C(F)(F)F)sc2n1 (configuration not stated) | 18.1 | 2470 | 3.0 | 0.2 | 2.2 | 11.5 | -7.3
CC(=O)c1ncnn1CC(=O)c1ccc(Cl)cc1Cl | -13.4 | 22669* | -2.5 | -4.4 | -4.6 | 2.6 | 1.9
O=C1NC2(Nc3ccccc31)C(=O)Nc1ccccc12 (configuration not stated) | -15.1 | 2741 | -7.0 | 2.0 | 15.3 | 8.5 | -8.6
COCCC(=O)N1CCC(Oc2ccc(C(=O)N3CCC[C@H]3CO)cc2)CC1 | 3.5 | 5984 | 1.9 | 0.3 | 4.4 | 10.8 | 0.9
CC(=NNc1cc(C)nc(-c2ccccc2)n1)c1cccc([N+](=O)[O-])c1 | 16.9 | nt | nt | nt | 8.4 | 5.0 | -10.1
CN(C)CCN(Cc1cc2cc3c(cc2nc1Cl)OCO3)C(=O)c1ccco1 | 4.9 | 5318 | -17.7 | -2.8 | 11.0 | 11.1 | 5.8
CN(C)CCN(C(=O)c1ccco1)c1nc2cc3c(cc2s1)OCCO3 | 14.5 | 6258 | -22.1 | 12.9 | -8.0 | -1.9 | 2.1
O=C(COc1ccccc1)N1CCNC1=O | 3.2 | 21620* | -1.9 | 1.0 | 1.8 | 2.0 | 1.9
O=C(c1ccco1)N1CCN(Cc2csc(-c3ccccc3Cl)n2)CC1 | -3.0 | 6364 | -45.9 | -7.6 | -0.9 | 12.8 | 3.2
Cc1ccc(NC(=O)C(C)Sc2nnc(C3CC3)n2C2CC2)cc1S(=O)(=O)N1CCOCC1 (configuration not stated) | 3.1 | 3825 | 1.7 | nt | 11.7 | 8.1 | 3.4
CN(C)CCN(Cc1ccco1)C(=O)c1cc2c(Cl)nc3ccccc3c2s1 | -6.2 | 2545 | -6.5 | -2.2 | -0.4 | 17.1 | -4.1
CC(C)COc1ccc(C(=O)Nc2ccccc2[N+](=O)[O-])cc1 | 8.4 | 8595 | -99.8 | 3.7 | -7.3 | 0.1 | -6.3
CCC(=O)N1CCc2cc(Br)cc(S(=O)(=O)CCC(=O)NCCOC)c21 | 1.5 | 8682 | -13.5 | -4.2 | 4.0 | 6.9 | 0.3
CC1=C(C(=O)OCc2ccccc2)C(c2cccs2)NC(=O)N1CCCC(=O)O (configuration not stated) | -3.5 | 3041 | -4.5 | -10.8 | -11.0 | 1.3 | -2.7
C=C(C)CC(c1ccccc1)N(C(C)=O)c1ccco1 (configuration not stated) | -1.9 | 2079 | 1.5 | 2.9 | 9.8 | 4.3 | 8.0
COc1cccc(C(=O)N(CN2CCCC2=O)c2ccccc2OC)c1 | -3.4 | 4397 | -16.5 | 3.4 | 1.4 | 9.4 | 1.2
COc1ccc(C2CC(c3cccs3)=NN2C(=O)CSC2=NCCS2)cc1 (configuration not stated) | -4.0 | 5051 | -10.4 | -6.4 | 4.7 | 2.0 | 0.3
